Assay outcomes: PubChem, several laboratories
Ins promoter up: MIN6 insulin promoter up-regulation. MIN6 insulin promoter-GFP reporter, high-content imaging; hits give high values. 0.3% of 190,000 active. z-score at 5 µM;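 active = z-score above 3 at 5 µM with at least 500 cells counted in the well; inconclusive = wells under 500 cells, flagged as cytotoxic or low count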
Yfh1-depleted yeast: enhancers of respiration in Yfh1-depleted yeast, dose response, Friedreich's ataxia, plus single-dose screen (AID 1465). 0.074% of 220,000 active. fold induction at 50 µM, or EC50 in µM where a hit was titrated. S. cerevisiae Yfh1-off respiration, WST-1 reduction, 72 h; higher fold induction means a stronger effect;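 active = fold induction of absorbance versus untreated yeast above a set limit, then at least 30% activation at any dose in follow-up; inconclusive = repeats straddling the limit, or above it without dose testing; inactive = fold induction below the set limit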;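 note: activators that raise dye reduction in frataxin-depleted yeast; strong numbers were not always called active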
Dynein cargo inh: blocks dynein driven cargo transport along microtubules; 3617.4 mouse cells, GR-EGFP nuclear translocation imaging; test concentration mostly 20 µM; stimulated with dexamethasone, 1 µM; hits give low values; z-score, hits read low; 0.47% of 220,000 active; AID 1381;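 active = plate z-score of nuclear minus cytoplasmic receptor signal below a set negative limit, without overly bright fluorescence or cell loss, cut at about -3.5 in these data, passing the limit was not always enough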;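 note: z-score of nuclear minus cytoplasmic ring GR-EGFP intensity difference per well; some compounds called inactive have numbers as strong as hits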
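Buffer or medium: Induction medium lacking tetracycline, stripped serum | Also added: Dexamethasone agonist, 1.0 µM final, for 30 min | Timing: 48 h induction, 1 h compound, 30 min dex at 37 °C | Detection: Formaldehyde fixation, Hoechst nuclear stain, 10x automated fluorescence imaging | Measure: Nuclear versus cytoplasmic GR-EGFP signal, averaged per well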
MT stabilizer: stabilizes microtubules in HeLa cells; HeLa tubulin immunostaining HCS, 24 h; share of cells brighter than vehicle mean+2SD; 0.83% of 200,000 active; % tubulin-high responders, % at 10 µM;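 active = plate Z-score above 3 for both tubulin-high and condensed-nucleus cell shares, with cell loss under 80%, at 10 µM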;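 note: anti alpha tubulin signal scored within the nucleus-defined area of each cell; some results filed as inactive read as strong as hits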
WT yeast gro inh: growth inhibition of WT yeast, mitochondrial fusion screen. mitochondrial fusion phenotypic screen, WT strain. inhibition, % at 10 µM. 2.1% of 190,000 active. AID 1362; in the data active = inhibition above about 58%; tested in S. cerevisiae
Lipid droplet: modulators of hepatic lipid droplet formation; AML12 mouse hepatocytes, oleate lipid droplets, BODIPY imaging; inhibition, % at 6.5 µM; AID 1656; 0.4% of 240,000 active;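 active = lipid droplet intensity inhibited by at least 50%, with more than 500 cells counted; inconclusive = wells with under 300 cells, treated as cytotoxic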
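Assay system: AML12 hepatocytes (mouse); Probe or stimulus: oleic acid at 100 µM to induce lipid droplet formation; Dosing: compound at 6.5 µM only; Schedule: compound with oleate, overnight; Detection: fluorescence imaging, 20x objective, two fields per well; Measure: % inhibition of lipid droplet signal.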
WT yeast gro inh mutant strain: further read-out of WT yeast gro inh, marked with its call; inhibition, %; mitochondrial fusion phenotypic screen, mutant strain inhibition
Dynein cargo inh cytoplasmic EGFP: second read-out of Dynein cargo inh, no call of its own (marks repeat the call); z-score; measured here: cytoplasmic GR-EGFP intensity; hits give high values
Dynein cargo inh nuclear GR-EGFP: also measured in Dynein cargo inh; calls as there; z-score; measured here: nuclear GR-EGFP intensity;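 lower value marks the stronger effect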
Dynein cargo inh cell count: second read-out of Dynein cargo inh, no call of its own (marks repeat the call); z-score; measured here: cell count per field
Ins promoter up cell count: further read-out of Ins promoter up, marked with its call; cell count; measured here: cytotoxicity, nuclei count;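 total cells summed across four imaged fields per well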
Lipid droplet cells 6.5 µM: recorded beside Lipid droplet, whose call it bears; cell count; measured here: cell count, cytotoxicity flag;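 cells counted across two imaged fields per well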
MT stabilizer Hoechst-high %: further read-out of MT stabilizer, marked with its call; % Hoechst-high responders; measured here: nuclear condensation Hoechst responders;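 share of cells brighter than vehicle mean plus two SD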
MT stabilizer cytotoxicity %: second read-out of MT stabilizer, no call of its own (marks repeat the call); toxicity, %; measured here: cytotoxicity by cell density;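 0% = mean cell density of plate MIN control wells and 100% = no cells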
An asterisk follows results filed as active; i = inactive; u = inconclusive; x = not tested or not shown.

(1) CN1CCN(c2nc(N(C)C)oc(=O)c2C#N)CC1
(2) COc1ccccc1N=Nc1c(O)[nH]c(=S)[nH]c1=O
(3) O=C(c1ccc(Cl)cc1)C1CCCN(Cc2cccc3ncccc23)C1 (stereo unspecified)
(4) O=C(Cn1cnc2sc3c(c2c1=O)CCCC3)NCCC(=O)N1CCC2(CC1)OCCO2
(5) CCOC(=O)N(c1ccccc1)P1(=S)OCC(C)O1 (stereo unspecified)
(6) CCN1CCN(c2nc3ccccc3s2)CC1
(7) Cc1cccc(-n2c(/C=C/c3ccc([N+](=O)[O-])o3)nc3ccccc3c2=O)c1
(8) Cc1cccc(NC(N)=S)c1

| Assay by compound | 1 | 2 | 3 | 4 | 5 | 6 | 7 | 8 |
| --- | --- | --- | --- | --- | --- | --- | --- | --- |
| Ins promoter up | 0.17 | 0.2 | -0.49 | -0.17 | -0.54 | -0.29 | 0.55 | -0.1 |
| Ins promoter up cell count | 1657 | 1424 | 1201 | 1551 | 1569 | 1464 | 788 | 1639 |
| Yfh1-depleted yeast | i | i | i | i | i | i | i | i |
| Dynein cargo inh | -0.23 | -0.51 | -0.19 | -0.99 | -0.47 | -0.71 | -2.6 | -0.36 |
| Dynein cargo inh cytoplasmic EGFP | -0.2 | -0.31 | -0.13 | -0.21 | -0.32 | -0.17 | 1.7 | -0.19 |
| Dynein cargo inh nuclear GR-EGFP | -0.44 | -0.11 | 0.039 | -0.21 | -0.13 | 0.29 | -1.3 | -0.31 |
| Dynein cargo inh cell count | 0.16 | 0.42 | 0.58 | 0.26 | 0.085 | 1.1 | 0.94 | 0.71 |
| MT stabilizer | 0.6 | 1.8 | 2.2 | 4.0 | 4.6 | 1.9 | 15 | 0.9 |
| MT stabilizer Hoechst-high % | 1.6 | 1.5 | 1.4 | 2.1 | 2.9 | 1.9 | 1.6 | 2.1 |
| MT stabilizer cytotoxicity % | 10 | 11 | 4.7 | 2.9 | 4.7 | 7.4 | 14 | 3.8 |
| WT yeast gro inh | -23 | 5 | 19 | -5 | -9 | 4 | 46 | -3 |
| WT yeast gro inh mutant strain | -32 | 1 | 18 | 0 | -7 | 3 | 26 | -4 |
| Lipid droplet | x | 10 | -10 | x | x | x | u | x |
| Lipid droplet cells 6.5 µM | x | 721 | 624 | x | x | x | x | x |

Arranged by length of the SMILES (low to high): some entries from above
(6) CCN1CCN(c2nc3ccccc3s2)CC1
(1) CN1CCN(c2nc(N(C)C)oc(=O)c2C#N)CC1
(4) O=C(Cn1cnc2sc3c(c2c1=O)CCCC3)NCCC(=O)N1CCC2(CC1)OCCO2

| Assay by compound | 6 | 1 | 4 |
| --- | --- | --- | --- |
| Ins promoter up | -0.29 | 0.17 | -0.17 |
| Ins promoter up cell count | 1464 | 1657 | 1551 |
| Yfh1-depleted yeast | i | i | i |
| Dynein cargo inh | -0.71 | -0.23 | -0.99 |
| Dynein cargo inh cytoplasmic EGFP | -0.17 | -0.2 | -0.21 |
| Dynein cargo inh nuclear GR-EGFP | 0.29 | -0.44 | -0.21 |
| Dynein cargo inh cell count | 1.1 | 0.16 | 0.26 |
| MT stabilizer | 1.9 | 0.6 | 4.0 |
| MT stabilizer Hoechst-high % | 1.9 | 1.6 | 2.1 |
| MT stabilizer cytotoxicity % | 7.4 | 10 | 2.9 |
| WT yeast gro inh | 4 | -23 | -5 |
| WT yeast gro inh mutant strain | 3 | -32 | 0 |
| Lipid droplet | x | x | x |
| Lipid droplet cells 6.5 µM | x | x | x |

Some of the compounds tested, so the mix of outcomes need not match the whole.
